Assay outcomes (PubChem)
HPGD block – HPGD (human) dehydrogenase inhibition. purified HPGD, NADH fluorescence kinetic, PGE2 substrate. AID 894. P15428. 4.3% of 150,000 active. Potency, µM, inactives show at the highest dose activity change, negative = inhibition, actives largely listed as inhibitors; active = well fitted inhibition curve with a large enough effect (not every such curve was filed as active); inconclusive = small, poorly fitted or top-dose-only effect, or another doubt; inactive = no such curve, though single readings can be large or run the other way;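 further: top concentration of the series not given in the record; plate controls included wells without enzyme; inactives centre near -10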
Target sequence (P15428 whole entry, looked up): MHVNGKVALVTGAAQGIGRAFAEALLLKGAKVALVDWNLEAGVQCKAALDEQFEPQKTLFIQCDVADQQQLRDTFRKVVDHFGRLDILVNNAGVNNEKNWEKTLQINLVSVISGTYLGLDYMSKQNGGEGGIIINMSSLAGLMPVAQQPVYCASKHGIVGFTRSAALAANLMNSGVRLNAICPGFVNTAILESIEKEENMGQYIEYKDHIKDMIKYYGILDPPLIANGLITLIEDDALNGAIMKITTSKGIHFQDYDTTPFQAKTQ
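20 nM HPGD preincubated 15 min at room temperature with compound in 50 mM Tris-HCl pH 8, 0.01% Tween 20. Started with 1 mM NAD+ and 30 uM prostaglandin E2; NADH fluorescence (360/450 nm) read 5 times over 30-s intervals, last minus first.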
Starred values were filed as active, the others as inactive; ? = inconclusive; & = joins results of further samples. On the % scale 0 is the no-effect control and ±100 the full control effect; potency means the concentration at half of the fitted maximal effect.

SMILES	HPGD block
O=C(c1cc(C(=O)c2ccco2)cc(C(=O)c2ccco2)c1)c1ccco1	-29%
O=C(O)CN(c1ccccn1)S(=O)(=O)c1ccc(Cl)cc1	?
CN(C)CCC(c1ccc(Cl)cc1)c1ccccn1 (stereo unspecified)	-10%&-1%&1%
CC(=O)N1CCc2[nH]c3ccccc3c2C1	-18%
COc1cc(C(C)=O)ccc1Oc1ncnc2c1cnn2-c1ccc(C)c(C)c1	-32%
COc1ccc(Br)c2oc(SC)cc(=O)c12	-29%
COc1ccccc1NS(=O)(=O)c1ccc(Cl)c(NC(=O)C(C)N2C(=O)c3ccccc3C2=O)c1 (stereo unspecified)	-9%
O=C(NCc1ccccc1)C(c1cccnc1)N(Cc1ccco1)C(=O)c1ccccn1 (stereo unspecified)	-3%
CCOc1ccc2nc(SCC(=O)NC(=O)NCc3ccco3)[nH]c2c1	-5%
O=C(c1cnc2ccccn2c1=O)N1CCCc2ccccc21	-9%
NC1=C2NC=N[C@@H]2N(C/C=C\c2ccccc2)C=N1	-8%
C/C(Cc1ccccc1)=N\NC(=O)c1cccnc1	2%
CC(OC(=O)c1cccc(NS(C)(=O)=O)c1)C(=O)Nc1ccc(N2CCOCC2)cc1 (stereo unspecified)	-5%
CCOC(=O)N1CCN(C(=O)COc2cccc3c2CCN(Cc2ccccc2C)C3=O)CC1	1%
COc1ccc(OCCOCCN2CCc3ccccc3C2)cc1	2%
CCOc1ccc(NC(=O)C/C(N)=N/O)cc1	-10%
CC1CCCCN1CCNC(=O)c1ccc2c(=O)n(CCc3ccccc3)c(=O)[nH]c2c1 (stereo unspecified)	-16%
CCCOn1c(OCC(C)C)nc2ccccc2c1=O	-15%
O=C(CSc1ncnc2nc[nH]c12)N1CCN(c2ccccc2)CC1	-2%
Cc1c(-c2ccccc2)nc(N)c(C#N)c1-c1ccco1	?
Cc1ccc(OCC(=O)O)c(-n2nc3ccccc3n2)c1	-3%
COc1ccccc1OCCCOc1c(C)cc(C)cc1Br	-27%
Cc1ccc(-c2nnc3c4ccccc4c(C)nn23)cc1S(=O)(=O)N1CCN(CCO)CC1	?
COc1ccc(C(=O)COC(=O)C2CCCN2C(=O)C23CC4CC(CC(C4)C2)C3)cc1 (stereo unspecified)	-15%
CCc1ccccc1N(CC(=O)N1CCN(c2ccccc2F)CC1)S(C)(=O)=O	-10%

Other records
SMILES	HPGD block
CCOC(=O)C1CCCN(C(=O)CN(c2ccc(OC)cc2)S(=O)(=O)c2c(C)noc2C)C1 (stereo unspecified)	-16%
Cn1c(=O)cc(OCC(=O)NCCCN2CCN(c3ccccc3F)CC2)c2ccccc21	-12%
COc1ccc(-n2nc(C(=O)NCC(=O)N3CCN(C)CC3)c3ccccc3c2=O)cc1OC	-5%
NS(=O)(=O)c1ccc(Nc2ncccc2[N+](=O)[O-])cc1	-9%
O=C(NN=c1c(=O)c2ccccc2c1=O)c1ccccc1	-14%
CCC(=O)Nc1cccc(NC(=O)c2ccc(C)c([N+](=O)[O-])c2)c1	-2%
Cc1ccccc1-c1nc(Cc2ccccc2)no1	-4%
COc1ccc(C2CC(=O)c3cnc(N)nc3C2)c(OC)c1 (stereo unspecified)	?
O=C(NCc1ccco1)c1ccc(Cn2c(=O)c3sccc3n(Cc3cccc(F)c3)c2=O)cc1	-15%
Clc1cc(Cl)cc(Nc2ncn[nH]2)c1	-8%
O=C(COC(=O)c1n[nH]c2ccccc12)NC(=O)NC1CCCCC1	-12%
O=C1CC(N2CCC(c3nc4ccccc4o3)CC2)C(=O)N1c1ccc(Cl)c(C(F)(F)F)c1 (stereo unspecified)	20µM*
CCOC(=O)N1CCN(S(=O)(=O)c2ccc(F)c(C(=O)Nc3cc(C)cc(C)c3)c2)CC1	-14%
C=C(C)Cc1c(C)c(C#N)c2nc3ccccc3n2c1N1CCCCC1	-16%
CC1(C)CC(C(CCN(Cc2ccccc2)C(=O)c2ccco2)c2ccc(F)cc2)CCO1 (stereo unspecified)	-7%
CCOC(=O)c1ccc(-n2c(=S)sc3c(=O)[nH]c(C)nc32)cc1	6.3µM*
CCC(=O)N(CCc1ccccc1)Cc1cc2cc3c(cc2[nH]c1=O)OCO3	?
O=C(CSc1nccn1-c1ccc(Cl)cc1)Nc1ccc2c(c1)OCO2	-18%
O=C(NCCCO)c1nnc(Cc2c(F)cccc2Cl)o1	-2%
O/N=C1/C2C3C(Br)C4C5CC(C1C53)C24 (stereo unspecified)	-3%
COC(=O)CSc1nnc(-c2cccnc2)n1-c1cc(OC)cc(OC)c1	-7%
CC(=O)NS(=O)(=O)c1ccc(NC(=O)c2cc(-c3ccc(C)cc3)nc3ccccc23)cc1	-20%
O=C(CCl)N1N=C(c2ccco2)CC1c1cccs1 (stereo unspecified)	-11%
CC(=O)Nc1nonc1-c1nc2ccccc2n1Cc1ccccn1	-18%
Cc1ccc(NC(=O)c2sc(Cl)nc2C)c(C)c1	-8%

Additional compounds
SMILES	HPGD block
CCOC(=O)c1cc2cc(CC(=O)c3ccc(OCC)cc3O)ccc2o1	-10%
C=CCN1c2ccccc2[C@]23C[C@@H](C(=O)OC)N(S(=O)(=O)c4cccs4)C2=NC(C(=O)OC)=C(C(=O)OC)[C@H]13	2%
Cc1cc2c(c(=O)n1C1CC1)C(c1cccc(Cl)c1)C(C#N)=C(N)O2 (stereo unspecified)	-7%
CCc1ccc(NC(=O)C(=O)c2cn(CC(=O)N3CCCCC3)c3ccccc23)cc1	-22%
COCCCNC(=O)c1ccc2c(=O)n(CC3CCCO3)c(=S)[nH]c2c1 (stereo unspecified)	-16%
COc1cc(/C=N/Nc2snc(SC)c2C#N)ccc1O	?
Cc1ccc(NC(=S)NNC(=O)c2ccc(N3CCOCC3)c([N+](=O)[O-])c2)cc1Cl	-11%
CCOCCCNC(=O)CCC(=O)NNc1nc2ccccc2c2nc(-c3ccccc3)nn12	-10%
O=C(NCc1cccnc1)c1ccc2c(=O)n(CCCN3CCCC3=O)c(=S)[nH]c2c1	-9%
CCOCCCNC(=O)c1cc2c(-c3ccc(Cl)cc3)nn(C)c2s1	?
CCOC(=O)C1=C(C)N=c2s/c(=C\c3ccc(OC(C)=O)cc3)c(=O)n2C1/C=C/c1ccccc1 (stereo unspecified)	-20%
CC(Sc1ccc(Cl)cc1)C(=O)Nc1ccc2c(c1)OCO2 (stereo unspecified)	0%
CC(=O)c1oc2ccccc2c1N	-11%
CCOC(=O)c1c(NC(=O)CSc2nnc(C)s2)sc2c1CCC(C)C2 (stereo unspecified)	-18%
COc1nc2ccc(C)cc2cc1-c1noc(-c2ccccc2)n1	?
CCCC(C)NC(=O)c1ccc(OCc2ccc(Cl)cc2)c(OC)c1 (stereo unspecified)	-4%
O=C(Cn1ncn2cccc2c1=O)N1CCCCC1	-10%
CSc1nc2[nH]c3c(c2c2ncnn12)CCCC3	-12%
FC(F)(F)c1cc(Oc2ccccc2)nc(-c2ccccn2)n1	-5%
Cc1ccc(C(C(=O)NCC2CCCO2)N(Cc2ccccc2F)C(=O)Cn2nnc(-c3cccs3)n2)cc1 (stereo unspecified)	-20%
Cc1cc(C)c(-c2c(O)c3cccc4c3n(c2=O)CCC4)c(C)c1	?
O=C1C2C3C=CC(C3)C2C(=O)N1c1ccccc1 (stereo unspecified)	-14%
CC(CO)(CO)Nc1ncnc2ccccc12	-2%
Cc1cc(=O)n2nc(-c3ccc(C(F)(F)F)cc3)sc2n1	-18%
COCOc1cc(OC)ccc1C(=O)/C=C/c1cccc(C(F)(F)F)c1	-4%

(cont.)
SMILES	HPGD block
Cc1ccc(-c2ccc(=O)n(CCC(=O)NCc3ccccn3)n2)cc1	-7%
COc1ccc(/C=N/N=C/c2c[nH]c(=O)c(C#N)c2Nc2ccccc2)cc1	-12%
COc1cc(NC(=O)C2CCN(S(=O)(=O)c3cccnc3)CC2)cc(OC)c1OC	-6%
CC(=O)Nc1cnc(NC(=O)c2cccc(F)c2)cc1C	-6%
O=c1cc(-c2ccccc2)oc2cc(O)cc(O)c12	-22%&-17%
COc1cccc(C(=O)CSc2nnc(CNc3nc(-c4ccccc4)cs3)n2C)c1	-5%
COC(=O)N1CCC2(CCCN(C(=O)Nc3cccc(F)c3)C2)CC1	-4%
CS(=O)(=O)Nc1cccc(-c2nc(N3CCOCC3)c3ccccc3n2)c1	-13%
CC(C)(C)C1CCC(=NNC(=O)c2ccc(Br)o2)CC1 (stereo unspecified)	-11%
O=C(Nc1cccc(F)c1)c1ccc(Br)o1	-25%
O=C(c1ccccc1NS(=O)(=O)c1ccc2c(c1)OCCO2)N1CCOCC1	-14%
COc1ccc(C(=O)Nn2c(SCC(=O)c3ccc(Cl)cc3)nc3ccccc3c2=O)cc1	-14%
CCN(CC)c1ccc(NC(=O)c2c(OC)cccc2OC)c(C)c1	-12%
COc1cccc(C2CC(c3c(F)cccc3Cl)n3nc(N)nc3N2)c1 (stereo unspecified)	-9%
O=C(CCCc1ccccc1)Nc1cccc2c1CCCC2	-9%
Cc1ccc2nc(CSc3nc(C)ccc3C#N)[nH]c2c1	?
Cc1ccc2c(c1)CN1CN2Cc2cc(C)ccc21	-9%
Cc1ccc(-c2nn3c(-c4cccc(Cl)c4)nnc3s2)cc1	-12%
CCOc1ccc(CNC(=O)c2ccc(Sc3ccc(Cl)cc3)c(NC(C)=O)c2)cc1OC	1%
COc1ccc(OCCC(=O)N2CCCCC2)cc1	16µM*
Cc1cc(-n2nc(C)cc2C)n2nc(C)c(-c3ccc(Cl)cc3)c2n1	-5%
COc1ccc(-c2cc(C(F)(F)F)n3ncc(C(=O)O)c3n2)cc1OC	-13%
CCOC(=O)c1[nH]c2ccc(OCC)cc2c1NC(=O)CN1CCN(c2ccccn2)CC1	?
Cc1noc(C)c1S(=O)(=O)N1CCN(c2ccccc2)CC1	-4%
CN1CCC(OC(c2ccccc2)c2ccccc2)CC1	-16%&-5%&-1%

More entries.
SMILES	HPGD block
CC(Oc1ccc(F)cc1F)C(=O)/C=C/N(C)C (stereo unspecified)	?
O=C(c1cc2cc([N+](=O)[O-])ccc2oc1=O)N1CCN(c2ncccn2)CC1	-4%
CCCCN(CCCC)S(=O)(=O)c1ccc(NC(=O)c2cccs2)cc1	-11%
CCOc1ccc2nc(NCCNC(=O)C(C)C)c(C)cc2c1	?
Cn1nccc1C(=O)Nc1ccc(Cl)cc1	-10%
CC(=O)N1N=C(c2ccncc2)OC12CCCCCC2	?
O=C(CSc1nnc(CNC(=O)c2ccco2)o1)c1ccc(Cl)cc1	-11%
O=C(CN1C(=O)c2ccccc2C1=O)Nc1sc2c(c1C(=O)NCc1ccco1)CCCC2	-13%
Cc1cccc(C)c1NC(=S)NNc1ncc(C(F)(F)F)cc1Cl	-5%
CCCc1cc(=O)[nH]c(/N=C(\N)Nc2ccccc2)n1	-4%
COc1ccc(-c2[nH]c(-c3ccc(SC)cc3)nc2SCC(=O)Nc2nccs2)cc1	?
Nc1nnc(SCC(=O)c2ccco2)s1	-9%
CCc1noc(C)c1C(=O)Nc1ncc(C)s1	-16%
CN1CCN(C(=O)c2cnn(-c3ccccc3)c2NC(=O)c2ccccc2F)CC1	-12%
COc1ccc(CNC(=O)CCc2c(C)nc3ncnn3c2C)cc1	-10%
COc1ccccc1N1CCN(S(=O)(=O)c2cnc[nH]2)CC1	-11%
CCOc1ccc(C(=O)OCC(=O)Nc2nc(OC)cc(OC)n2)cc1OCC	-9%
CCC1CCCCN1Cc1nc2c(c(=O)n(C)c(=O)n2C)n1CC(C)C (stereo unspecified)	-8%
CCOC(=O)C1CCN(C(=O)CN(c2ccc3c(c2)OCO3)S(C)(=O)=O)CC1	-10%
CCC(C)n1c(SCc2ccccc2)nc2ccsc2c1=O (stereo unspecified)	-8%
CC1(C)Cc2ccccc2-c2nc(NCCO)n(-c3ccccc3)c(=O)c21	?
Cc1cc(C)cc(CC2CC(=O)N(c3cc(C)on3)C2=O)c1 (stereo unspecified)	-10%
CCCCn1c(Cc2ccccc2)n[nH]c1=S	?
c1ccc([C@H]2CN3CCSC3=N2)cc1	-7%
O=C(NCc1ccc2c(c1)OCO2)c1ccc(-n2cnnn2)cc1	-3%

An excerpt from above in order of length of the SMILES, lowest first:
SMILES	HPGD block
Nc1nnc(SCC(=O)c2ccco2)s1	-9%
Cn1nccc1C(=O)Nc1ccc(Cl)cc1	-10%
c1ccc([C@H]2CN3CCSC3=N2)cc1	-7%
CCc1noc(C)c1C(=O)Nc1ncc(C)s1	-16%
CC(Oc1ccc(F)cc1F)C(=O)/C=C/N(C)C (stereo unspecified)	?
CCC(C)n1c(SCc2ccccc2)nc2ccsc2c1=O (stereo unspecified)	-8%
CCOc1ccc2nc(NCCNC(=O)C(C)C)c(C)cc2c1	?
CCCc1cc(=O)[nH]c(/N=C(\N)Nc2ccccc2)n1	-4%
COc1ccc(CNC(=O)CCc2c(C)nc3ncnn3c2C)cc1	-10%
COc1ccccc1N1CCN(S(=O)(=O)c2cnc[nH]2)CC1	-11%
Cc1cc(C)cc(CC2CC(=O)N(c3cc(C)on3)C2=O)c1 (stereo unspecified)	-10%
O=C(CSc1nnc(CNC(=O)c2ccco2)o1)c1ccc(Cl)cc1	-11%
CCCCN(CCCC)S(=O)(=O)c1ccc(NC(=O)c2cccs2)cc1	-11%
CCC1CCCCN1Cc1nc2c(c(=O)n(C)c(=O)n2C)n1CC(C)C (stereo unspecified)	-8%
CCOc1ccc(C(=O)OCC(=O)Nc2nc(OC)cc(OC)n2)cc1OCC	-9%
CC1(C)Cc2ccccc2-c2nc(NCCO)n(-c3ccccc3)c(=O)c21	?
CN1CCN(C(=O)c2cnn(-c3ccccc3)c2NC(=O)c2ccccc2F)CC1	-12%
CCOC(=O)C1CCN(C(=O)CN(c2ccc3c(c2)OCO3)S(C)(=O)=O)CC1	-10%
O=C(c1cc2cc([N+](=O)[O-])ccc2oc1=O)N1CCN(c2ncccn2)CC1	-4%
O=C(CN1C(=O)c2ccccc2C1=O)Nc1sc2c(c1C(=O)NCc1ccco1)CCCC2	-13%

These rows are one share of the data; count on the stated rates, not on these rows.
